Compound activity deposited in PubChem by National Center for Advancing Translational Sciences (NCATS).
PMP22 txn prim: modulates PMP22 transcription in S16 Schwann cells; S16 Pmp22-F2sN Schwann cells (luciferase reporters placed in the Pmp22 gene), FLuc/NLuc coincidence luminescence, 24 h; Potency, µM (series often up to 57.5 µM), without a hit: at the highest dose activity change, negative = inhibition, actives largely listed as inhibitors; 43,000 tested, 2% active; AID 1508649; active = clear falling dose curves in both reporters; inconclusive = both reporters move, but less clearly or upward; inactive = either reporter flat; the % is the NLuc reporter signal; further: on the % scale 0 is the no-effect control and ±100 the full control effect; some results filed as inactive show a strong effect at the top dose
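Luminescent read-out of sequential FLuc and NLuc signals from a reporter embedded in the Pmp22 3' UTR of S16 Schwann cells, taken after 24 h compound exposure at 37C; compounds reducing both signals score as inhibitors of expression.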
HTT prom inh: inhibitors of huntingtin promoter activity; Potency, µM (series often up to 57.5 µM), for inactives: top-dose activity change, negative = inhibition, hits mostly inhibitors; 48,000 tested, 0.93% active; HEK293 HTT promoter firefly luciferase reporter (activity 0% = vehicle and -100% = no light), 24 h; AID 1508623; active means well fitted inhibition curve with a large enough effect; inconclusive means small, poorly fitted or top-dose-only effect; inactive means no such curve, though single readings can be large or run the other way; further: nearly all actives have a fitted effect of over 50% in size
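Quantitative HTS used concentration series of up to 57.5 uM final on HEK293 luciferase reporter cells, 24 h at 37 degrees C. Readout was Dual-Glo firefly luminescence.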
* hit, by the source's call; & = joins results of further samples; [ ] = another dose, or the depositor's remark. Potency means the concentration at half of the fitted maximal effect.

Screening COc1ccc(C(=O)N2c3nc(-c4ccco4)nn3C3(CCCCC3)[C@@H]3CCCC[C@@H]32)cc1OC returned PMP22 txn prim 1% and HTT prom inh -23%.
Screening CCOc1ccc2nc(N3CCN(C(=O)c4ccco4)CC3)sc2c1 returned PMP22 txn prim -8% and HTT prom inh 0%.
For COc1ccc(CNC(=O)C2CCN(C(=O)c3cnn(-c4ccccc4)c3-n3cccc3)CC2)cc1 the results were PMP22 txn prim inconclusive and HTT prom inh inconclusive.
`CCCN(Cc1cccs1)C(=O)Nc1ccccc1C` gave PMP22 txn prim 62% and HTT prom inh -3%.
CC1CCN(C(=O)CSc2nc(-c3ccc(F)cc3)cc(C(F)(F)F)n2)CC1 was read as PMP22 txn prim -34% and HTT prom inh inconclusive.
Cc1cccn2c(=O)c(C(=O)NCCc3ccccc3)c(O)nc12 was read as PMP22 txn prim 11% and HTT prom inh 50%[activator].
Screening CCc1cccc(C)c1NC(=O)CSc1nc(C)cc(C)c1C(=O)Nc1ccccc1 returned PMP22 txn prim -7% and HTT prom inh inconclusive.
For CC(C)(C)c1ccc(C(=O)NC(Cc2c[nH]c3ccccc23)C(=O)OCC(=O)c2ccc(Cl)cc2)cc1 (stereo unspecified) the results were PMP22 txn prim 1% and HTT prom inh -21%.
`Cc1cc(C)cc(NC(=O)CSc2nccn2C2CCCC2)c1` gave PMP22 txn prim inconclusive and HTT prom inh -5%.
For CCC(=O)N1CCc2cc(CNS(=O)(=O)c3c(C)cc(C)cc3C)ccc21 the results were PMP22 txn prim inconclusive and HTT prom inh -16%.
Screening Cc1ccc(NCc2cccn2-c2nnc(N3CCC(C(=O)NCCC(C)C)CC3)s2)cc1 returned PMP22 txn prim inconclusive and HTT prom inh inconclusive.
For CCc1nnc(SCc2nc(-c3cccc(Cl)c3)oc2C)c2cc3sc(C)cc3n12 the results were PMP22 txn prim -40% and HTT prom inh 7%.
`COc1cccc(N2CCN(C(=O)c3cnc4c(-c5ccc(F)cc5)c(C)nn4c3C)CC2)c1` gave PMP22 txn prim 8% and HTT prom inh -18%.
`C[C@]12CC[C@@H]3c4ccc(O)cc4CC[C@H]3[C@@H]1C[C@@H](O)[C@@H]2O` gave HTT prom inh 2%.
Screening CC(=O)c1ccc(OC(=O)c2c(-c3ccccc3Cl)noc2C)cc1 returned PMP22 txn prim -21% and HTT prom inh 2%.
Screening CC(C)(C)c1ccc(C(=O)NC2=NC(c3cccc(F)c3)CC(=O)N2)cc1 (stereo unspecified) returned PMP22 txn prim inconclusive and HTT prom inh -10%.
`COc1ccccc1-c1nnc(SCC(=O)c2ccc(F)cc2)n1-c1ccccc1` gave PMP22 txn prim -47% and HTT prom inh inconclusive.
For CCN(CC)S(=O)(=O)c1ccc(NC(=O)c2ccc3c(=O)n4c(nc3c2)CCCCC4)cc1 the results were PMP22 txn prim inconclusive and HTT prom inh inconclusive.
For CCOC(=O)c1cc(-c2ccc(OC)cc2)n(CCC(=O)NCc2ccc(OC)cc2)c1C the results were PMP22 txn prim -12% and HTT prom inh -1%.
Screening COc1ccc2cc3cc(C(=O)N4CCN(c5ccc(C(C)=O)cc5)CC4)sc3nc2c1Cl returned PMP22 txn prim -19% and HTT prom inh -5%.
For Cc1ccc(NC(=O)CSc2ncc(-c3ccccc3)[nH]2)cc1 the results were PMP22 txn prim inconclusive and HTT prom inh -3%.
Screening Cc1cccc2nc(-c3cccnc3)c(Nc3ccc(C(C)C)cc3)n12 returned PMP22 txn prim inconclusive and HTT prom inh inconclusive.
For Cc1ccc(OCC(=O)Nc2nnc(S(=O)(=O)N3CCCCCC3)s2)cc1 the results were PMP22 txn prim 1% and HTT prom inh -7%.
`COc1ccc(CCNC(=O)c2nnc(Cc3ccc(Cl)cc3)o2)cc1OC` gave PMP22 txn prim -175% and HTT prom inh -21%.
Screening CCN(c1cc(C)cc(C)c1)S(=O)(=O)c1nnc(NC(=O)c2cccc(F)c2)s1 returned PMP22 txn prim -88% and HTT prom inh inconclusive.
`O=C(NCC(c1ccc2c(c1)OCO2)N1CCOCC1)C(=O)Nc1ccc(F)cc1F` (stereo unspecified) gave PMP22 txn prim 1% and HTT prom inh 11%.
Screening Cc1nc2nc(SCC(=O)NC3CCCCC3)nn2c(C)c1Cc1ccccc1Cl returned PMP22 txn prim 6% and HTT prom inh -11%.
`N#Cc1ccc(C(=O)Nc2ccccc2-c2nc3ccccc3s2)c(F)c1` gave PMP22 txn prim 3% and HTT prom inh 10%.
For Cc1ccc(-n2nc(C)c3c(C(=O)Nc4ccc(C)cc4Cl)cc(C)nc32)cc1 the results were PMP22 txn prim 0% and HTT prom inh -5%.
`CCOc1ccc(/C=C/C(=O)Nc2sc3c(c2C(=O)OC)CCCC3)cc1` gave PMP22 txn prim 4% and HTT prom inh 16%.
Screening Cc1ccc(NC(=O)c2ccc(=O)n(Cc3ccccc3C)c2)c(C)c1 returned PMP22 txn prim 0% and HTT prom inh -19%.
CCc1ccc(NC(=O)CC(NCc2cccnc2)C(=O)O)cc1 (stereo unspecified) was read as PMP22 txn prim -1% and HTT prom inh -16%.
For COc1ccc(NC(=O)CC2C(=O)N(c3cccc(OC)c3)C(=O)N2CCc2cccs2)cc1 (stereo unspecified) the results were PMP22 txn prim 4% and HTT prom inh inconclusive.
`CCc1ccc(S(=O)(=O)c2nnn(-c3cccc(C)c3)c2N)cc1` gave PMP22 txn prim -44% and HTT prom inh inconclusive.
CC1CN(C(=O)Nc2ccc(C(=O)NCCc3ccc(Cl)cc3)cc2)c2ccccc2S1 (stereo unspecified) was read as PMP22 txn prim 3% and HTT prom inh 9%.
CC(=O)Nc1cc(C(=O)NCc2ccccc2Cl)ccc1Sc1ccc(F)cc1 was read as PMP22 txn prim 1% and HTT prom inh -18%.
Screening O=C(Nc1sc2c(c1C(=O)NCc1ccco1)CCCC2)c1cc(=O)c2ccccc2o1 returned PMP22 txn prim inconclusive and HTT prom inh inconclusive.
`Cc1ccc(-c2nc(CCNC(=O)C(=O)Nc3ccc(F)cc3F)cs2)cc1` gave PMP22 txn prim -28% and HTT prom inh -5%.
`CCN(CC)c1ccc(C2C(C(N)=O)=C(C)Nc3ncnn32)cc1` (stereo unspecified) gave PMP22 txn prim 2% and HTT prom inh -2%.
For Cc1ccccc1CNc1nc(N(C)C)nc2c1cnn2C the results were PMP22 txn prim -1% and HTT prom inh -25%.
`Cc1ccc(S(=O)(=O)NCCc2cn3ccsc3n2)cc1` gave PMP22 txn prim -7% and HTT prom inh 0%.
`CC1=C(C(=O)Nc2ccc(C)cc2)C(c2ccc(Cl)cc2)n2nnnc2N1` (stereo unspecified) gave PMP22 txn prim inconclusive and HTT prom inh -6%.
For Cc1ccccc1NC(=O)C1CCN(S(=O)(=O)c2cccc3nonc23)CC1 the results were PMP22 txn prim 2% and HTT prom inh 1%.
Cc1cccc(-n2c3nc(=O)[nH]c(=O)c-3cc3ccc(Cl)cc32)c1C was read as PMP22 txn prim 0% and HTT prom inh -14%.
For Cc1oc2cc3oc(=O)c(CC(=O)N4CCCCC4)c(C)c3cc2c1C the results were PMP22 txn prim -14% and HTT prom inh -5%.
`Cc1ccccc1CS(=O)(=O)Cc1ccc(C(=O)NCc2ccc(F)cc2)o1` gave PMP22 txn prim inconclusive and HTT prom inh -29%.
For CCCC(=O)C1=C(c2cccc(OC)c2)N(C(=O)CCC)n2c(C)nnc2S1 the results were PMP22 txn prim inconclusive and HTT prom inh -28%.
CCC1CN(C(=O)N2CCC(C(=O)NCc3cccc(OC)c3OC)CC2)c2cc(C)ccc2O1 (stereo unspecified) was read as PMP22 txn prim -10% and HTT prom inh -18%.
`COc1ccccc1C(=O)Nc1ccc(-c2nc3cc(C)cc(C)c3o2)cc1` gave PMP22 txn prim 1% and HTT prom inh 6%.
For Cc1cc(Br)cc2c1N(Cc1ccccc1OC(C)C)C(=O)C2=O the results were PMP22 txn prim 9.5µM* and HTT prom inh inconclusive.
`O=C(c1cccc(Cl)c1)N(Cc1ccco1)Cc1ccccc1Cl` gave PMP22 txn prim -14% and HTT prom inh inconclusive.
For CC(=O)N1c2ccc(S(=O)(=O)NCC3CCC(C(=O)Nc4ccccc4C)CC3)cc2CC1C (stereo unspecified) the results were PMP22 txn prim -27% and HTT prom inh inconclusive.
`CCOc1cccc(C(=O)N(Cc2ccc(CC)cc2)C2CCS(=O)(=O)C2)c1` (stereo unspecified) gave PMP22 txn prim 48% and HTT prom inh -16%.
`O=C(NCCc1ccc(F)cc1)C(=O)NCC(c1cccs1)S(=O)(=O)c1ccccc1` (stereo unspecified) gave PMP22 txn prim inconclusive and HTT prom inh inconclusive.
Screening CCc1nnc2c3ccccc3nc(Nc3cc(C)cc(C)c3)n12 returned PMP22 txn prim -13% and HTT prom inh -17%.
COc1cccc(CNC(=O)CCn2ccc3cc(S(=O)(=O)N4CCCC4)ccc32)c1 was read as PMP22 txn prim 3% and HTT prom inh -16%.
CCCCCCn1c(=O)c2c(ncn2C)n(C)c1=O was read as HTT prom inh 9%.
CCN(CC)C(=O)C1CCN(C(=O)c2cnn(-c3ccccc3)c2-n2cccc2)CC1 was read as PMP22 txn prim -6% and HTT prom inh -19%.
`COc1ccc(CNS(=O)(=O)c2cc(C(=O)Nc3cc(Cl)cc(Cl)c3)ccc2F)cc1` gave PMP22 txn prim inconclusive and HTT prom inh inconclusive.
For CCSc1ccc(C(=O)Nc2ccc(-c3nc4ccc(C)cc4s3)cc2)cc1 the results were PMP22 txn prim -21% and HTT prom inh -8%.

6 records drawn at random from those above, as already listed:
CC1CCN(C(=O)CSc2nc(-c3ccc(F)cc3)cc(C(F)(F)F)n2)CC1 was read as PMP22 txn prim -34% and HTT prom inh inconclusive.
`Cc1cc(C)cc(NC(=O)CSc2nccn2C2CCCC2)c1` gave PMP22 txn prim inconclusive and HTT prom inh -5%.
For Cc1ccc(-n2nc(C)c3c(C(=O)Nc4ccc(C)cc4Cl)cc(C)nc32)cc1 the results were PMP22 txn prim 0% and HTT prom inh -5%.
For CCN(CC)S(=O)(=O)c1ccc(NC(=O)c2ccc3c(=O)n4c(nc3c2)CCCCC4)cc1 the results were PMP22 txn prim inconclusive and HTT prom inh inconclusive.
`CCN(CC)c1ccc(C2C(C(N)=O)=C(C)Nc3ncnn32)cc1` (stereo unspecified) gave PMP22 txn prim 2% and HTT prom inh -2%.
Screening Cc1nc2nc(SCC(=O)NC3CCCCC3)nn2c(C)c1Cc1ccccc1Cl returned PMP22 txn prim 6% and HTT prom inh -11%.

More entries
`COc1ccc(-c2cn3c(n2)sc2cc(C(=O)Nc4ccccc4F)ccc23)cc1` gave PMP22 txn prim inconclusive and HTT prom inh 0%.
For Cc1ccccc1C(=O)Nc1cccc(OCc2cc(=O)n3c(C)csc3n2)c1 the results were PMP22 txn prim -33% and HTT prom inh 14%.
Screening COc1ccc(Cl)cc1NC(=O)C(C)n1nnc2sc3c(c2c1=O)CCCC3 (stereo unspecified) returned PMP22 txn prim -13% and HTT prom inh -3%.
Screening COc1ccc2oc(=O)c(C(=O)NCCc3c(C)[nH]c4ccc(Br)cc34)cc2c1 returned PMP22 txn prim inconclusive and HTT prom inh -11%.
CC(=O)c1ccc(NC(=O)c2ccc3c(c2)N(Cc2cccc(Cl)c2)C(=O)c2ccccc2S3=O)cc1 (stereo unspecified) was read as PMP22 txn prim -1% and HTT prom inh inconclusive.
For O=C(CCC(=O)OCC(=O)c1ccc(Cl)cc1)Nc1ccc(Oc2ccccc2)cc1 the results were PMP22 txn prim -29% and HTT prom inh -10%.
`CC(C)CCNC(=O)Nc1cc(C(=O)NCc2cccc(F)c2)ccc1N1CCCC1` gave PMP22 txn prim -4% and HTT prom inh inconclusive.
COc1ccc(-n2c(/C=C/c3cc(OC)c(OC)cc3OC)nc3cc4ccccc4cc3c2=O)cc1Cl was read as PMP22 txn prim 39% and HTT prom inh -6%.
Screening CC1=C(c2ccc(C)cc2)S(=O)(=O)NC1=NCCCN1CCN(c2ccc(F)cc2)CC1 returned PMP22 txn prim inconclusive and HTT prom inh inconclusive.
`CCOc1ccc(NC(=O)c2oc3ccccc3c2NC(=O)c2ccc(OC)cc2OC)cc1` gave PMP22 txn prim -3% and HTT prom inh -5%.
`O=C(CCn1c(=O)c2sccc2n(CC(=O)Nc2ccccc2)c1=O)NCc1ccccc1Cl` gave PMP22 txn prim inconclusive and HTT prom inh -9%.
For O=C(COc1ccc([N+](=O)[O-])cc1)NCC1(N2CCOCC2)CCCCC1 the results were PMP22 txn prim -17% and HTT prom inh -15%.
For COc1ccc(CCN2C(=O)NC(NS(=O)(=O)c3ccc(NC(C)=O)cc3)(C(F)(F)F)C2=O)cc1OC (stereo unspecified) the results were PMP22 txn prim 1% and HTT prom inh -19%[11.5 µM].
For Cc1ccc(OCCSc2nc(-c3ccccc3C)nc3cc(=O)[nH]n23)cc1Cl the results were PMP22 txn prim inconclusive and HTT prom inh -4%.
Screening O=C(c1ccccc1Cl)N1CCCC(c2nc3c(nnn3Cc3ccc(F)cc3F)c(=O)[nH]2)C1 (stereo unspecified) returned PMP22 txn prim -10% and HTT prom inh -28%.
Screening Clc1ccc2c(c1)C(N1CCNCC1)=Nc1ccccc1O2 returned HTT prom inh 2%&21%.
Screening CCOc1ccc(NC(=O)c2noc3c2CSc2ccccc2-3)cc1 returned PMP22 txn prim 2% and HTT prom inh 1%.
Screening COc1ccccc1CNC(=O)c1ccc(-c2nc(CN3CCc4ccccc43)c(C)o2)cc1 returned PMP22 txn prim inconclusive and HTT prom inh 18µM*.
